A1 inhib – inhibitors of A1. 21,000 tested, 0.51% active. AID 2241. MEF A1-2A-BIM cells, caspase-Glo luminescence, 3 h; percent of clofoctol signal, DMSO as zero. caspase activation, % (test concentration not listed);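 active = most replicate scores above 10, or exactly half above 10 with mean activity above 10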;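 also: effector caspase 3 and 7 activity cleaving a DEVD luciferin substrate; 50 nL library stock added to about 30 µL; numbers are from one replicate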
BJeLR viability – compounds reducing viability of BJeLR cells | viability loss activity score, % (concentration not given with the values) | BJeLR fibroblasts viability, CellTiterGlo ATP luminescence, 48 h; HRASV12, hTERT and SV40 LT/ST transformed | 30,000 tested, 0.64% active; in the data active = viability loss activity score above about 50%; about a fifth of its hits are not listed in these tables;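 also: higher score means fewer live cells and less ATP luminescence; stock transfer was 50 or 100 nL into about 30 µL; 0% = vehicle wells and 100% = a reference killing control; one replicate is shown; the record names a cut of 85%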
Numbers without * were called inactive; x = no result given.

SMILES	A1 inhib	BJeLR viability
CCN(CC)c1ccc(/C=C2/C(=O)NN(c3ccc(C)cc3)C2=O)cc1	1.3	0.2
CCC(=O)Nc1cc2c(C)cc(=O)oc2cc1C	1.2	1.1
C[C@@H]1CN([C@@H](C)CO)C(=O)c2cc(NS(=O)(=O)c3ccc(Cl)cc3)ccc2O[C@@H]1CN(C)S(=O)(=O)c1ccccc1	0.2	-2.2
Cc1noc(C)c1NC(=O)Nc1ccc2c(c1)C(=O)N([C@@H](C)CO)C[C@H](C)[C@@H](CN(C)Cc1ccc(C(=O)Nc3ccccc3N)cc1)O2	x	1.0
Cc1cc(=O)oc2cc(OCc3cccc(F)c3)ccc12	-4.0	-0.7
CC(C)NC(=O)Nc1ccc2c(c1)C(=O)N([C@H](C)CO)C[C@@H](C)[C@@H](CN(C)Cc1ccc(C(F)(F)F)cc1)O2	-0.1	-4.8
CS(=O)c1nc(-c2ccccc2)cc(C(F)(F)F)n1 (centres undefined)	x	18.7
COc1ccc(CN(C)C[C@@H]2Oc3ccc(NC(=O)Nc4ccccc4)cc3C(=O)N([C@H](C)CO)C[C@@H]2C)cc1	-0.2	-2.5
CCCCn1cnc2c(cnn2-c2ccc(F)cc2)c1=O	-0.8	6.6
C[C@H](CO)N1C[C@H](C)[C@@H](CN(C)S(=O)(=O)c2ccccc2)Oc2c(NC(=O)C3CC3)cccc2C1=O	x	1.4
CCSc1nnc(Cn2c(=O)sc3ccccc32)n1C	0.2	-1.0
C[C@H](CO)N1C[C@H](C)[C@H](CN(C)C(=O)Nc2ccc(C(F)(F)F)cc2)Oc2ccc(N(C)C)cc2C1=O	0.6	-1.7
C[C@H](CO)N1C[C@H](C)[C@@H](CN(C)C(=O)Nc2ccc3c(c2)OCO3)Oc2ccc(NC(=O)c3ccncc3)cc2C1=O	-0.3	0.0
COc1ccc(CN(C)C[C@H]2Oc3ccc(NS(C)(=O)=O)cc3C(=O)N([C@H](C)CO)C[C@@H]2C)cc1	0.2	2.4
C[C@@H]1CN([C@@H](C)CO)C(=O)c2cc(NC(=O)C3CC3)ccc2O[C@H]1CN(C)S(=O)(=O)c1ccc(Cl)cc1	0.3	-4.0

Given with each value named: part of the list above
mol: CS(=O)c1nc(-c2ccccc2)cc(C(F)(F)F)n1 (centres undefined)
  A1 inhib: x | BJeLR viability: 18.7
mol: C[C@@H]1CN([C@@H](C)CO)C(=O)c2cc(NS(=O)(=O)c3ccc(Cl)cc3)ccc2O[C@@H]1CN(C)S(=O)(=O)c1ccccc1
  A1 inhib: 0.2 | BJeLR viability: -2.2
mol: Cc1noc(C)c1NC(=O)Nc1ccc2c(c1)C(=O)N([C@@H](C)CO)C[C@H](C)[C@@H](CN(C)Cc1ccc(C(=O)Nc3ccccc3N)cc1)O2
  A1 inhib: x | BJeLR viability: 1.0

Following part
SMILES	A1 inhib	BJeLR viability
Cc1ccc(S(=O)(=O)Nc2cccc3c2O[C@@H](CN(C)Cc2ccncc2)[C@H](C)CN([C@H](C)CO)C3=O)cc1	x	3.3
C[C@@H]1CN([C@@H](C)CO)C(=O)c2cc(NS(=O)(=O)c3cn(C)cn3)ccc2O[C@@H]1CN(C)C(=O)Nc1cccc2ccccc12	-0.1	-5.8
Cc1ccc(S(=O)(=O)N2CCN(C(=O)c3ccccc3)C2c2ccccc2)cc1 (centres undefined)	0.8	4.8
CCOc1ccc(NC(=O)c2sc(C)c(CC(=O)Nc3ccc(Cl)cc3)c2O)cc1	x	1.7
CCOc1ccc(NC(=S)NC(Cc2ccccc2)c2ccccc2)cc1 (centres undefined)	-0.4	-1.2
Cc1cccc(C)c1Nc1scc(C)[n+]1C	-0.8	0.6
CNC[C@@H]1Oc2c(NS(=O)(=O)c3ccc(OC)cc3)cccc2C(=O)N([C@H](C)CO)C[C@@H]1C	x	-0.9
C/C=C1\[C@H]2C=C(C)C[C@]1(N)c1ccc(=O)[nH]c1C2	0.3	-2.0
COC(CNC(=O)c1cc(-c2ccccc2)nc2ccccc12)OC	0.0	-2.1
C=C1C(=O)OC2CC(C)C3(/C=C/C(C)=O)OC3CC12 (centres undefined)	-0.2	1.8
Cc1cccc(NC(=S)Nc2ccccn2)c1	-0.5	-0.7
C[C@H](CO)N1C[C@H](C)[C@@H](CN(C)C(=O)Nc2ccc(C(F)(F)F)cc2)Oc2c(NC(=O)c3cnccn3)cccc2C1=O	x	-3.3
C[C@H](CO)N1C[C@H](C)[C@H](CN(C)C(=O)Nc2ccc3c(c2)OCO3)Oc2ccc(NC(=O)CCCCCC(=O)Nc3ccccc3N)cc2C1=O	x	-4.3
C[C@@H]1CN([C@H](C)CO)C(=O)c2cccc(N(C)C)c2O[C@H]1CN(C)S(C)(=O)=O	x	-2.2
C[C@@H]1CN([C@@H](C)CO)C(=O)c2cccc(NC(=O)C3CC3)c2O[C@@H]1CN(C)Cc1ccccc1	x	-4.6
Cc1noc(C)c1NC(=O)N(C)C[C@H]1Oc2c(NC(=O)Nc3cccc4ccccc34)cccc2C(=O)N([C@H](C)CO)C[C@H]1C	x	3.6
Cc1nc2nc(-c3ccc(Cl)cc3)[nH]n2c(=O)c1C	-3.1	1.5
CCCCN1CN=C(Nc2nc3ccccc3o2)NC1	x	0.1
Cc1noc(C)c1S(=O)(=O)Nc1ccc2c(c1)C(=O)N([C@H](C)CO)C[C@@H](C)[C@H](CN(C)S(=O)(=O)c1ccc(F)cc1)O2	0.8	5.6
CCOc1ccc(-c2nc3ccc(-c4nc5ccc(N6CCN(C)CC6)cc5[nH]4)cc3[nH]2)cc1	-0.2	126.0*
Cc1cc2cc3c(C)cc(=O)oc3c(C)c2o1	-0.8	-0.7
C[C@H]1CN([C@@H](C)CO)C(=O)c2cc(NC(=O)CCC(F)(F)F)ccc2O[C@@H]1CN(C)CC1CC1	0.5	-1.3
CC1CC(=O)c2cnc(N3CCc4ccccc43)nc2C1 (centres undefined)	-1.9	-7.0
C[C@@H]1CN([C@H](C)CO)C(=O)c2cccc(NS(=O)(=O)c3cn(C)cn3)c2O[C@@H]1CN(C)C(=O)Nc1ccc(C(F)(F)F)cc1	x	0.0
CCc1ccc(-n2c(=O)c3ccccc3n(CC(=O)C(C)(C)C)c2=O)cc1	x	1.2
CCC1Sc2ccccc2NC1=O (centres undefined)	0.5	-3.8
CCOC(=O)Cn1c(-c2c(Cl)cccc2Cl)noc1=O	-1.1	-1.2
O=C(O)CNC(=O)CSc1ccccn1	0.5	2.4
CSC1=NCCN1C(=O)c1ccccc1	x	1.6
Cc1cc(-c2ccc(NC(=O)C3CC3)c(C)c2)ccc1NC(=O)C1CC1	x	1.1
O=C(CSc1ccc(Cl)cc1)N1CCc2c([nH]c3ccccc23)C1C(F)(F)F (centres undefined)	-0.6	5.7
CCC(C)NC(=O)c1ccc(Sc2ccc(Cl)cc2)c(NC(C)=O)c1 (centres undefined)	0.1	2.3
C[C@@H]1CN([C@H](C)CO)C(=O)c2cc(NC(=O)c3ccncc3)ccc2O[C@@H]1CN(C)C(=O)NC1CCCCC1	0.4	1.0
CNC(=S)NC1CCS(=O)(=O)C1 (centres undefined)	-0.1	-3.1
Cn1c(=O)oc2cc(S(=O)(=O)NCCC(=O)Nc3cccc(F)c3)ccc21	0.2	1.2
CC1=NN(C(=O)Cc2ccccc2)C(O)(c2ccccc2)C1 (centres undefined)	1.3	7.1
CCOc1ccc(-c2cc3[nH]c(=O)n(-c4ccccc4C(F)(F)F)c(=O)c3s2)cc1	1.9	5.2
Cc1noc(C)c1NC(=O)Nc1ccc2c(c1)C(=O)N([C@@H](C)CO)C[C@H](C)[C@@H](CN(C)S(=O)(=O)c1cn(C)cn1)O2	-0.1	-4.4
CCc1cccc(NC(=O)NC(=O)Cn2nnc(C(=O)OC)c2C(=O)OC)c1	x	0.9
C[C@H](CO)N1C[C@H](C)[C@@H](CN(C)C(=O)Nc2ccc3c(c2)OCO3)Oc2ccc(NC(=O)Nc3ccccc3)cc2C1=O	0.5	3.7
COc1ccc2c(c1)OC(C(=O)c1ccccc1)C2=O (centres undefined)	-0.2	-4.2
C[C@H](CO)N1C[C@H](C)[C@H](CN(C)Cc2ccc(C(=O)O)cc2)Oc2ccc(NS(=O)(=O)c3ccc(Cl)cc3)cc2C1=O	0.0	1.1
CC(C)NC(=O)N(C)C[C@@H]1Oc2c(NC(=O)NC3CCCCC3)cccc2C(=O)N([C@@H](C)CO)C[C@@H]1C	x	3.1
C[C@@H]1CN([C@H](C)CO)C(=O)c2cccc(NS(=O)(=O)c3ccc(Cl)cc3)c2O[C@H]1CN(C)C(=O)Nc1ccccc1	x	4.4
CC(C)(C)c1ccccc1OCC(=O)Nc1cccc2ccccc12	-0.9	1.6
C[C@H](CO)N1C[C@H](C)[C@H](CN(C)Cc2ccc(Cl)c(Cl)c2)Oc2ccc(NC(=O)C3CC3)cc2C1=O	0.2	-4.4
C[C@@H]1CN([C@H](C)CO)C(=O)c2cc(NC(=O)Nc3ccccc3)ccc2O[C@@H]1CN(C)C(=O)Nc1ccc2c(c1)OCO2	-1.0	-0.7
C=CCNc1oc(-c2ccccc2)nc1C#N	-1.7	0.9
COc1ccc(NC(=O)N(C)C[C@H]2Oc3ccc(NS(=O)(=O)c4ccc(OC)cc4)cc3C(=O)N([C@@H](C)CO)C[C@@H]2C)cc1	0.7	2.3
CC1CC(=O)C2=C(CCC34OC23C(=O)c2cccc(O)c2C4O)C1 (centres undefined)	0.8	7.6
Cc1ccc(OCCn2c(C(O)c3ccccc3)nc3ccccc32)cc1 (centres undefined)	-1.3	10.8
CC(C)n1c(SCC(=O)Nc2ccccc2Cl)nc2cc(Cl)ccc21	-0.4	-5.5
COc1ccc(NC(=O)Nc2cccc3c2O[C@@H](CN(C)CC2CCCCC2)[C@@H](C)CN([C@@H](C)CO)C3=O)cc1	x	2.3
C=CCNC(=S)N1CCc2sccc2C1c1ccc(OC)cc1 (centres undefined)	-1.0	1.2
Cc1noc(C)c1NC(=O)Nc1ccc2c(c1)C(=O)N([C@@H](C)CO)C[C@@H](C)[C@H](CN(C)Cc1ccc3c(c1)OCO3)O2	0.0	-0.5
CC(=O)OCC1=CCCC2[C@@]1(C)CC[C@@H](C)[C@]2(C)CCC(C)CC(=O)O (some centres undefined)	0.2	0.0
O=C(Cc1coc(-c2ccc(F)cc2)n1)Nc1ccccc1	-0.7	0.9
Cc1noc(C)c1NC(=O)Nc1ccc2c(c1)C(=O)N([C@@H](C)CO)C[C@@H](C)[C@H](CN(C)S(C)(=O)=O)O2	0.3	0.2
CCOC(=O)c1cc(-c2ccccc2)n(CCNC(=O)OC(C)(C)C)c1C	0.1	0.4
Cc1ccc(S(=O)(=O)N(C)C[C@@H]2Oc3ccc(NC(=O)Nc4ccc5c(c4)OCO5)cc3C(=O)N([C@@H](C)CO)C[C@H]2C)cc1	0.3	2.6

Quoted at random: five records from the list.
SMILES	A1 inhib	BJeLR viability
CCOC(=O)Cn1c(-c2c(Cl)cccc2Cl)noc1=O	-1.1	-1.2
CCOc1ccc(-c2nc3ccc(-c4nc5ccc(N6CCN(C)CC6)cc5[nH]4)cc3[nH]2)cc1	-0.2	126.0*
C=C1C(=O)OC2CC(C)C3(/C=C/C(C)=O)OC3CC12 (centres undefined)	-0.2	1.8
Cc1cccc(NC(=S)Nc2ccccn2)c1	-0.5	-0.7
CCc1cccc(NC(=O)NC(=O)Cn2nnc(C(=O)OC)c2C(=O)OC)c1	x	0.9

Later entries:
SMILES	A1 inhib	BJeLR viability
C[C@@H]1CN([C@@H](C)CO)C(=O)c2cc(NC(=O)C3CC3)ccc2O[C@H]1CN(C)Cc1ccncc1	0.6	-0.5
C[C@@H]1CN([C@H](C)CO)C(=O)c2cc(NC(=O)CCC(F)(F)F)ccc2O[C@H]1CN(C)C(=O)NC1CCCCC1	1.3	-1.6
COc1ccc(CN(C)C[C@H]2Oc3ccc(NS(=O)(=O)c4ccc(OC)cc4)cc3C(=O)N([C@H](C)CO)C[C@@H]2C)cc1	0.0	-2.9
CC1(C)C=Cc2c(c(CCO)c3occ(-c4ccc(O)c(O)c4)c(=O)c3c2O)O1	-0.2	-5.0
CCOC(=O)NC1c2ccccc2Sc2ccc(Cl)cc21 (centres undefined)	1.4	-1.1
CC(=O)OCC(=O)[C@@]1(O)CCC2C3C[C@H](C)C4=CC(=O)C=CC4(C)C3[C@@H](O)CC21C (some centres undefined)	-0.5	-7.8
CC(=O)N1C(=S)NC(=O)C1c1ccccc1 (centres undefined)	x	-2.5
COc1ccc(S(=O)(=O)N(C)C[C@H]2Oc3c(NC(=O)c4nc5ccccc5s4)cccc3C(=O)N([C@H](C)CO)C[C@H]2C)cc1	x	3.6
COc1ccc(NC(=O)N(C)C[C@H]2Oc3c(NC(=O)c4cc(C)nn4C)cccc3C(=O)N([C@@H](C)CO)C[C@@H]2C)cc1	x	0.3
C[C@@H]1CN([C@H](C)CO)C(=O)c2cc(NC(=O)C3CCCCC3)ccc2O[C@@H]1CN(C)S(C)(=O)=O	0.3	-0.9
COc1ccc(NC(=O)C2CCCN2c2cccc(C(F)(F)F)c2)cc1OC (centres undefined)	x	-3.3
CCc1c(C)sc(NC(=O)C2CC3CCC2C3)c1C(=O)OC (centres undefined)	-1.1	1.8
O=C(CN1C(=O)CCc2ccccc21)NCc1ccccc1	-0.3	-1.1
CCCNC(=O)Cn1ncc2c3ccccc3n(C)c2c1=O	0.3	-2.8

High-throughput results (PubChem)

This is a subset; count on the stated rates, not on these rows.
